YopH PTP inh = YopH tyrosine phosphatase inhibitors, primary screen, biochemical, fluorescence Ex485/Em525 | YopH tyrosine phosphatase [Yersinia enterocolitica] | inhibition, %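 (about 10 µM by stock and volumes)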 | hit rate 0.16% among 140,000;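 active = inhibition of 50% or more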;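 note: controls were vehicle for no effect and minimum signal wells for full effect; inactives centre near -20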
RecA intein inh = Mtb RecA intein splicing inhibitors, primary screen, biochemical, fluorescence, HTS. inhibition, %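 (about 9 µM by stock and volumes)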. hit rate 0.75% among 290,000. cell-free RecA intein splicing. AID 2221, 2009. Protein RecA (Mycobacterium tuberculosis (strain ATCC 25618 / H37Rv)), P9WHJ3; in the data active = inhibition above about 30%;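 note: 0% = vehicle wells and 100% = reference inhibitor control wells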
Target sequence (P9WHJ3 whole entry, looked up): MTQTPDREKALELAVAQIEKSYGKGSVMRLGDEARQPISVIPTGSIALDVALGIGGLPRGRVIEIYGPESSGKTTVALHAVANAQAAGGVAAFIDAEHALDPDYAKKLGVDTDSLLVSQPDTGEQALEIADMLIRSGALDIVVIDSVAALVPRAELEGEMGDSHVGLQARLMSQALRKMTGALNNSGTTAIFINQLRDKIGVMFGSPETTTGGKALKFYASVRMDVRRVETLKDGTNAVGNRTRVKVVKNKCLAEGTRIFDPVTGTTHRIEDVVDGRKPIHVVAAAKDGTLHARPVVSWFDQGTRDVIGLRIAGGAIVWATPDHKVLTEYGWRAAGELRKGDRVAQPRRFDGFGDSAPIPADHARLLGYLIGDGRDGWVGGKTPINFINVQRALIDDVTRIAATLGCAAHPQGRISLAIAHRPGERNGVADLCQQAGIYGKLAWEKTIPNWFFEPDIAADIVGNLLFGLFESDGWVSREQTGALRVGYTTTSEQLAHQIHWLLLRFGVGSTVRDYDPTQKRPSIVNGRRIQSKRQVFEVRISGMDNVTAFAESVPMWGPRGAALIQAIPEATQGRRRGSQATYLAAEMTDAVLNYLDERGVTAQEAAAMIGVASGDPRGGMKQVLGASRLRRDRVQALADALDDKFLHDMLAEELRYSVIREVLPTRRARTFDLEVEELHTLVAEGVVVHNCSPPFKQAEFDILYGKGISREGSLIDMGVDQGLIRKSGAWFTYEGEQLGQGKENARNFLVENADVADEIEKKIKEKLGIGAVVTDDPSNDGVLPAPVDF
Arbovirus inh = antivirals against arbovirus infection, primary screen, cell-based, full library, 10K replicate subset. arbovirus infection cell-based antiviral screen. hit rate 0.37% among 200,000. AID 1251, 2008. inhibition, % at 10 µM;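 active = inhibition from about 30%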;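 note: bluetongue infection of BSR cells; cell survival read as ATP light after 72 h; 0% = infected wells without compound and 100% = uninfected wells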
Mtb H37Rv = M. tuberculosis H37Rv growth inhibitors, H37Rv strain (AID 1626) | M. tuberculosis H37Rv growth inhibition; higher % means a stronger effect | one-dose inhibition, % at 10 µM; IC50 in µM for titrated hits | hit rate 0.95% among 220,000;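 active = confirmed in a dose series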;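 note: bacteria incubated seven days before Alamar blue readout; 0% = bacteria only wells and 100% = bacteria with antibiotic wells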
Mtb bLac sens = beta-lactam sensitization of Mtb H37Rv, H37Rv; AID 434955, 2010; hit rate 0.27% among 330,000; M. tuberculosis H37Rv growth with meropenem, percent inhibition; hits of this screen are not shown here; inhibition, % at 25 µM;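 active = about 74% or more and at least 40 points above the plate without the antibiotic, then above 30% in a dose series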;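 note: growth measured after seven days incubation then overnight dye step; 0% = bacteria only wells and 100% = bacteria with antibiotic; twin plates without the antibiotic show which effects depend on it; some results filed as inactive read as strong as hits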
Arbovirus inh repeat = further read-out of Arbovirus inh, marked with its call; inhibition, %; measured here: 10K subset replicate screen; many hits read low in the repeat;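 first of two repeat runs on a subset; 0% = infected and 100% = uninfected wells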
* hit, by the source's call; . = no result given. These rows are one share of the data, so the mix of outcomes need not match the whole.

SMILES | YopH PTP inh | RecA intein inh | Arbovirus inh | Mtb H37Rv | Mtb bLac sens | others
COc1cc(/C=N/NC(=O)C(Cc2c[nH]c3ccccc23)NC(=O)OCC(C)C)cc([N+](=O)[O-])c1O (stereo not drawn) | 3 | 0.9 | -9 | 8% | 2
CCOC(=O)c1c(-c2ccccc2)oc2ccc(OC(=O)N(C)C)cc12 | -10 | 0.6 | -15 | -17% | 15
CCOC(=O)C1(Cc2ccc(OC)cc2)CCN(S(C)(=O)=O)CC1 | . | 1.1 | 4 | -3% | 3
Cc1ccc(-c2nnc(SCC(=O)N/N=C/c3cccs3)n2-c2ccc(C)cc2)cc1 | -2 | -0.7 | 3 | 27% | 4
Cc1cc(OC(=O)c2ccc(F)cc2)c([N+](=O)[O-])c(=O)[nH]1 | . | -2.5 | . | . | -1
CC(=O)Nc1sc2c(c1C#N)CCCC2 | 14 | 6.6 | -3 | -5% | -5
O=C(COC(=O)c1ccc(NS(=O)(=O)c2cccs2)cc1O)Nc1nc2ccccc2s1 | . | 2.4 | 2 | 0% | -7
O=C(O)c1ccccc1NC(=O)c1ccccc1-c1ccccc1C(=O)O | . | -2.3 | . | . | -5
Cc1[nH]n(C2=NCCS2)c(=O)c1N=Nc1cccc(C(F)(F)F)c1 | . | 0.9 | -11 | 0.39µM* | 95
COc1cc(OC)cc(C(=O)N[C@H](C(=O)NCc2ccc(F)cc2)C(C)C)c1 | . | 0.2 | . | . | 5
CCC(Sc1nc(C)cc(=O)[nH]1)C(=O)Nc1nc2c(s1)CCCC2 (stereo not drawn) | -48 | 1.3 | 9 | -6% | -6
COc1ccc(CCNc2nc(-c3ccc(F)cc3)c(CC(=O)O)s2)cc1OC | . | -1.5 | . | . | -4
CSc1nnc(C(C)c2ncc(C(F)(F)F)cc2Cl)n1C (stereo not drawn) | . | 1.3 | -1 | -1% | -4
Cc1c(NC(=O)c2ccc(N(C)S(C)(=O)=O)cc2)c(=O)n(-c2ccccc2)n1C | . | -0.3 | 3 | 2% | -3
Cc1ccc(-c2noc(C3CCN(C(=O)Nc4ccc(C#N)cc4)CC3)n2)o1 | -39 | 0.8 | 0 | 15% | 81
COc1ccc(C(=O)NN(c2ccccc2)c2ccccc2)cc1 | -30 | 0.1 | 1 | 5% | -13
CCOC(=O)N1CCN(C(=O)c2noc(C(C)C)c2[N+](=O)[O-])CC1 | -10 | -1.7 | 6 | 1% | 3
Cc1ccc(C)c(CN2C(=O)C3CCCN3c3ccc(C#N)cc32)c1 (stereo not drawn) | -24 | -6.7 | -2 | -7% | 3
Nc1cc(C(=O)OCC(=O)NNC(=O)c2cccs2)ccc1Cl | . | 2.5 | . | . | 4
CCOC(=O)Nc1c(O)ccc2oc(C)c(-c3ccccc3)c12 | -86 | -3.3 | 5 | 1% | 1 | Arbovirus inh repeat=9

Next part, starting with the last 2 of the part before.
SMILES | YopH PTP inh | RecA intein inh | Arbovirus inh | Mtb H37Rv | Mtb bLac sens | others
Nc1cc(C(=O)OCC(=O)NNC(=O)c2cccs2)ccc1Cl | . | 2.5 | . | . | 4
CCOC(=O)Nc1c(O)ccc2oc(C)c(-c3ccccc3)c12 | -86 | -3.3 | 5 | 1% | 1 | Arbovirus inh repeat=9
COc1ccc(C(=O)/C=C/Nc2ccc([N+](=O)[O-])cc2C)c(OC)c1 | -24 | -2.6 | -3 | -4% | -7
Cc1ccccc1Sc1ccc(N)cn1 | . | -1.0 | . | . | -10
C=CCNc1nc(NCc2ccccc2)nc(OCC)n1 | . | 1.9 | . | . | 5
OC(COC(c1ccccc1)c1ccccc1)CN1CCc2ccccc2C1 (stereo not drawn) | -17 | 4.1 | -26 | 13% | 3
O=C(NCCCN1CCOCC1)c1c(F)c(F)c(F)c(F)c1F | . | 6.5 | . | . | 0
C=CCn1c(SCc2cc(=O)n3cc(C)ccc3n2)nnc1-c1ccc(F)cc1 | -7 | -0.9 | 11 | -2% | 1
O=C1c2ccccc2C(=O)N1CCOc1cccc(Br)c1 | . | 2.0 | . | . | -5
COc1ccc(C2(C(=O)NC3CCCCC3)CCOCC2)cc1OC | -7 | 1.0 | 6 | 5% | -14
O=C(CSCc1ccccc1)Nc1ccc(F)c(F)c1 | -12 | 5.6 | 5 | 25% | 83
COC(=O)c1nc(N)sc1C(C)C | . | -5.5 | -3 | 2% | -3
CCn1c(CCNC(=O)c2ccc(F)cc2)nc2ccccc21 | -54 | 0.4 | -8 | 6% | -8
Cc1cccn2cc(CCNS(=O)(=O)c3ccc([N+](=O)[O-])cc3)nc12 | -5 | -1.6 | -3 | -6% | -1
Cc1nc(N2CCN(c3ccccc3F)CC2)[nH]c(=O)c1C | . | -0.5 | . | . | -5
CC1CCCCN1C(=O)CNCc1ccc(F)cc1 (stereo not drawn) | . | -1.1 | . | . | -2
O=C(CSc1nc2ncccc2[nH]1)Nc1ccc2c(c1)OCCO2 | -2 | . | 5 | -10% | -8
COc1ccc(C(=O)N2CCCC2(C#N)c2ccccc2)cc1[N+](=O)[O-] (stereo not drawn) | . | -1.4 | . | . | 3
COc1ccc(-c2ccc(C(=O)O)c(=O)[nH]2)cc1 | . | -5.2 | 5 | 1% | -1
Cn1cnnc1SCC(=O)Nc1nc(-c2ccccc2)cs1 | . | -1.7 | -2 | -5% | -8
COc1ccc(N2CCN(C(=O)c3ccc(-c4ccccc4)cc3)CC2)cc1 | . | -0.7 | . | . | 5
O=C1NC(=O)C2C1C(c1ccc([N+](=O)[O-])cc1)=NN2Cc1ccccc1 (stereo not drawn) | . | -3.6 | 20 | 0% | 11
CCC1CCCCN1C(=O)c1cc(COc2ccc(-n3cncn3)cc2)on1 (stereo not drawn) | . | -4.4 | . | . | -2
Cc1ccccc1Cc1c(C)nc2c(C(=O)NCc3ccc4c(c3)OCO4)cnn2c1C | -24 | 5.7 | 1 | 11% | 13
CCOc1cc(/C=N/NC(=O)C(O)(c2ccccc2)c2ccccc2)ccc1OC(=O)c1ccco1 | . | 27 | . | . | -6
CCOCCCNC(=O)CN1C(=O)COc2ccc(S(=O)(=O)N3CCC(C)CC3)cc21 | . | 2.3 | . | . | 9
O=C(O)c1[nH]c2ccccc2c1NS(=O)(=O)Cc1ccccc1 | -2 | 0.0 | 8 | -11% | 6
COCCCN(C(=O)Nc1ccccc1)C(C)c1ccncc1 (stereo not drawn) | -49 | -2.7 | 0 | 1% | 1 | Arbovirus inh repeat=-3
COC(=O)c1ccc(OC(=O)c2cccnc2SC)cc1 | . | 6.8 | . | . | -4
Fc1ccc(C(c2nnnn2Cc2ccco2)N2CCN(C3CCCCC3)CC2)cc1 (stereo not drawn) | 3 | -0.7 | -4 | -2% | -10
Cc1cc(NC(=O)CSc2nc(-c3ccccc3)nc3c2c(=O)n(C)c(=O)n3C)no1 | . | -5.9 | -1 | . | -3
C=CCn1c(C(C)NC(=O)COC)nc2ccccc21 (stereo not drawn) | -21 | 0.7 | 5 | -10% | -4 | Arbovirus inh repeat=2

19 structures already listed, sorted by molecular weight, lowest first.
SMILES | YopH PTP inh | RecA intein inh | Arbovirus inh | Mtb H37Rv | Mtb bLac sens | others
COC(=O)c1nc(N)sc1C(C)C | . | -5.5 | -3 | 2% | -3
COc1ccc(-c2ccc(C(=O)O)c(=O)[nH]2)cc1 | . | -5.2 | 5 | 1% | -1
CC1CCCCN1C(=O)CNCc1ccc(F)cc1 (stereo not drawn) | . | -1.1 | . | . | -2
C=CCn1c(C(C)NC(=O)COC)nc2ccccc21 (stereo not drawn) | -21 | 0.7 | 5 | -10% | -4 | Arbovirus inh repeat=2
O=C(CSCc1ccccc1)Nc1ccc(F)c(F)c1 | -12 | 5.6 | 5 | 25% | 83
Cc1nc(N2CCN(c3ccccc3F)CC2)[nH]c(=O)c1C | . | -0.5 | . | . | -5
CCn1c(CCNC(=O)c2ccc(F)cc2)nc2ccccc21 | -54 | 0.4 | -8 | 6% | -8
COCCCN(C(=O)Nc1ccccc1)C(C)c1ccncc1 (stereo not drawn) | -49 | -2.7 | 0 | 1% | 1 | Arbovirus inh repeat=-3
O=C(O)c1[nH]c2ccccc2c1NS(=O)(=O)Cc1ccccc1 | -2 | 0.0 | 8 | -11% | 6
Cn1cnnc1SCC(=O)Nc1nc(-c2ccccc2)cs1 | . | -1.7 | -2 | -5% | -8
O=C(CSc1nc2ncccc2[nH]1)Nc1ccc2c(c1)OCCO2 | -2 | . | 5 | -10% | -8
COc1ccc(C(=O)N2CCCC2(C#N)c2ccccc2)cc1[N+](=O)[O-] (stereo not drawn) | . | -1.4 | . | . | 3
Cc1cccn2cc(CCNS(=O)(=O)c3ccc([N+](=O)[O-])cc3)nc12 | -5 | -1.6 | -3 | -6% | -1
CCC1CCCCN1C(=O)c1cc(COc2ccc(-n3cncn3)cc2)on1 (stereo not drawn) | . | -4.4 | . | . | -2
Fc1ccc(C(c2nnnn2Cc2ccco2)N2CCN(C3CCCCC3)CC2)cc1 (stereo not drawn) | 3 | -0.7 | -4 | -2% | -10
Cc1ccccc1Cc1c(C)nc2c(C(=O)NCc3ccc4c(c3)OCO4)cnn2c1C | -24 | 5.7 | 1 | 11% | 13
Cc1cc(NC(=O)CSc2nc(-c3ccccc3)nc3c2c(=O)n(C)c(=O)n3C)no1 | . | -5.9 | -1 | . | -3
CCOCCCNC(=O)CN1C(=O)COc2ccc(S(=O)(=O)N3CCC(C)CC3)cc21 | . | 2.3 | . | . | 9
CCOc1cc(/C=N/NC(=O)C(O)(c2ccccc2)c2ccccc2)ccc1OC(=O)c1ccco1 | . | 27 | . | . | -6

Later entries
SMILES | YopH PTP inh | RecA intein inh | Arbovirus inh | Mtb H37Rv | Mtb bLac sens | others
O=C(NCCC1CCCCN1S(=O)(=O)c1ccccc1)C(=O)NCCN1CCOCC1 (stereo not drawn) | . | -2.2 | . | . | -9
Cc1c(Cl)cccc1N=C1SCCN1C(=O)CN1C(=O)NC2(CCCC2)C1=O | . | 6.4 | . | . | 8
O=C(NC1CCCCC1)C(c1ccccn1)N(C(=O)Cc1cccs1)c1ccc(Cl)cc1 (stereo not drawn) | -7 | -1.4 | -23 | 1% | -5
COc1nc(-c2ccc(Cl)cc2)nnc1C | . | 2.3 | 2 | 2% | 2
Cc1nn(-c2ccccc2)c(C)c1/C=N/Nc1nc2ccccc2[nH]1 | -22 | 14 | -36 | 22% | 92
NC(=O)c1ccccc1OCC(=O)NS(=O)(=O)c1ccccc1 | -20 | 0.7 | -4 | -10% | -20
CCn1ccnc1CN(C)Cc1cn(-c2cc(C)ccc2C)nc1-c1ccccc1 | . | 8.9 | -13 | 5.9µM* | 98
O=C(Nc1nnc(-c2ccc(F)cc2)s1)c1ccco1 | . | -3.3 | . | . | -3
Cc1ccc(F)cc1NC(=O)C12CC3CC(C1)CC(n1cnc([N+](=O)[O-])n1)(C3)C2 | -21 | -4.5 | -1 | 0% | -3
CCC1(c2ccc(F)cc2)NC(=O)N(CC(=O)N2CCN(S(=O)(=O)c3ccc(Cl)cc3)CC2)C1=O (stereo not drawn) | . | -2.7 | . | . | -3
Cc1ccc(C(=O)NCC2CCCO2)cc1S(=O)(=O)N1CCCCC1 (stereo not drawn) | . | 0.3 | . | . | -2
CN(CP(=O)(O)CCc1ccccc1)S(C)(=O)=O | -38 | -1.4 | 11 | -4% | -9
O=C(Nc1ccccc1)ON=C1CCCC1 | -33 | -2.6 | 4 | 1% | 4
CCOc1ccc(-c2cc(C)[n+](CCO)c(-c3ccc(OCC)cc3)c2)cc1 | . | -7.1 | -6 | 2% | -3
COc1ccccc1NC(=O)CC(c1ccc(OC(C)C)cc1)c1ccccc1OC (stereo not drawn) | -26 | 8.6 | 9 | 4% | 11
CCN(CC)S(=O)(=O)c1cc(NC(=O)CSc2nc3c(cc2C#N)C(=O)CC(C)(C)C3)ccc1C | -24 | -0.8 | -29 | -5% | 6
O=S(=O)(c1ccccc1)N1CCN(C(=S)Nc2ccc(F)cc2)CC1 | -1 | 7.9 | -5 | -2% | -7
Cn1cc(S(=O)(=O)N2CCCC2)cc1C(=O)N1CCN(c2cccc(Cl)c2)CC1 | . | -1.5 | . | . | -5
CCCCC(C(=O)NCCC(C)C)N(CCCN1CCOCC1)C(=O)c1snc(C(N)=O)c1N (stereo not drawn) | -49 | 0.7 | 0 | -2% | -7
CS(=O)(=O)c1ccc(CNC(=O)C2(C(F)(F)F)CC(CCCO)CCCO2)cc1 (stereo not drawn) | . | 0.1 | . | -11% | -4
Brc1cccc(-c2nnc3sc(CN4CCCCC4)cn23)c1 | -1 | -3.7 | -23 | 1% | 0
O=C(CSc1nnc(-c2ccccc2)c(-c2ccccc2)n1)NCc1ccco1 | -13 | 6.2 | -4 | -9% | 6
